# Source: PubChem
# HPGD block: qHTS Assay for Inhibitors of HPGD (15-Hydroxyprostaglandin Dehydrogenase); 15-hydroxyprostaglandin dehydrogenase [NAD(+)] (Homo sapiens), P15428; Potency, µM, for the others: at the top dose activity change, negative = inhibition, actives largely listed as inhibitors; purified HPGD, NADH fluorescence kinetic, PGE2 substrate; hit rate 4.3% among 150,000; active = well fitted inhibition curve with a large enough effect (not every such curve was filed as active); inconclusive = small, poorly fitted or top-dose-only effect, or another doubt; inactive = no such curve, though single readings can be large or run the other way;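 also: top concentration of the series not given in the record; plate controls included wells without enzyme; inactives centre near -10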
# Target sequence (P15428 whole entry, looked up): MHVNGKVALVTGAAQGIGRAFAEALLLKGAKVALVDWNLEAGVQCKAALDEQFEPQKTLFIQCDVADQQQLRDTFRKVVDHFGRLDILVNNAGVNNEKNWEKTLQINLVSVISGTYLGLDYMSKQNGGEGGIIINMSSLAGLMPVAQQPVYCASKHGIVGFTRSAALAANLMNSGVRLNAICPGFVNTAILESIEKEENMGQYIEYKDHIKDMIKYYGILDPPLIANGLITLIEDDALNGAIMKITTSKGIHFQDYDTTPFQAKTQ
#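 NADH formation kinetics: reaction with 30 uM PGE2 and 1 mM NAD+ (final), 20 nM enzyme, Tris-HCl pH 8 with Tween 20, after 15 min compound preincubation at room temperature. Fluorescence change, last versus first of five reads.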
# The depositor's hits bear a star; ? = inconclusive; & = joins results of further samples. % is scaled to controls: 0 for no effect and ±100 for the full control effect; potency is read from the fitted curve at half-maximal effect.
SMILES,HPGD block
Cc1nc2ccccn2c1P(=S)(N1CCCCC1)N1CCCCC1,-26.7%
COc1ccc(CCn2c(O)c(C=NC3CC3)c(=O)[nH]c2=O)cc1OC,-4.1%
COC(=O)C(O)(c1c(C)[nH]c2ccccc12)C(F)(F)F (configuration not stated),-6.6%
OC12Oc3ccccc3C=C1N1CCC2CC1 (configuration not stated),3.5%
CCOc1ccc(-n2c(O)c(C=NCCN(CC)CC)c(=O)[nH]c2=O)cc1,-10.6%
Cc1cccc(C#N)c1,0.7%
Cc1ccc(OP(=O)(Oc2ccc(C)cc2)N2C=Cc3ccccc3[C@H]2C#N)cc1,-6.0%
C=C1C/C(=C/C)C(=O)O[C@@H]2CCN3CC=C(COC(=O)[C@]1(C)O)[C@@H]23,0.3%
CN1CCN(C(=O)OC2c3nccnc3C(=O)N2c2ccc(Cl)cn2)CC1 (configuration not stated),-5.6%&-7.1%
ON1C2CCCCC2N(O)C1c1ccccc1 (configuration not stated),-12.7%
CN1C(=O)C(Cc2c[nH]c3ccccc23)C(=O)N(C)C1=O,?
CC1Cc2cc3c(cc2C(c2ccc(N)cc2)=NN1)OCO3 (configuration not stated),-20.5%
CC(=O)OC1C2CCCC1C(N1CCCC1)CC2 (configuration not stated),-17.0%&-3.0%
COc1ccc(OCC(=O)N2CCN(Cc3c[nH]c4ccccc34)CC2)cc1,-0.7%
CC(C)c1ccc(OCC(=O)N2CCN(C)CC2)c(Br)c1,-3.8%
C[C@]12CCC3C(CC[C@]4(O)CC(O)CC[C@@]34C=O)[C@]1(O)CCC2C1=CC(=O)OC1 (some centres not stated),-0.4%
CC1CN(O)C2CCc3nonc3C12O (configuration not stated),-2.5%
c1ccc(N2CC[C@@]3(CCCNC3)C2)nc1,?
CC/C=C\C[C@@H](/C=C/C=C\C/C=C\C/C=C\CCCC(=O)O)OO,0.0%
CC(=O)/C=C/c1ccccc1,-9.3%
CN1CC[C@@]2(CCCN(C(=O)c3ccco3)C2)C1,-5.5%
CCOC(=O)[C@@]1(C#N)C(c2ccc(Cl)c(Cl)c2)[C@H](C(N)=O)N2C=C(C(C)=O)C=C[C@H]21 (some centres not stated),-8.0%
CC1CCCC(C2(O)C(=O)Nc3ccccc32)C1=O (configuration not stated),-10.0%
CC1(C)S[C@H]2[C@@H](N)C(=O)N2[C@H]1C(=O)O,0.8%
Cc1ccc2c(C)cccc2c1,-4.3%
# (next part)
SMILES,HPGD block
COc1ccc(NC(=O)N2CCC3(CC2)OCCO3)cc1OC,1.2%
CCCCOCCOP(=O)(OCCOCCCC)OCCOCCCC,-4.1%
Cc1cc(C)cc(NC(=S)NC2CC3CCCC(C2)N3Cc2cccs2)c1 (configuration not stated),-4.7%
CCn1cc(C(=O)c2cccs2)c2ccccc21,-10.8%
Cn1c(=O)cc(OCCCC(=O)N2CCC3(CC2)OCCO3)c2ccccc21,-26.8%
c1ccc(CCN2CCCCCC2)nc1,-13.8%
CCCc1[nH][nH]c(=O)c1C(c1ccc(Cl)cc1)C(C#N)C#N (configuration not stated),15.8µM*
O=C(COc1ccccc1)N1CCN(Cc2c[nH]c3ccccc23)CC1,-0.1%
CCC[N+]12CCC(CC1)C(=C(c1ccccc1)c1ccccc1)C2,-3.4%
CCC(=O)c1cc(F)c(N2CCN(CC)CC2)cc1C,-8.5%
COC(=O)[C@@H]1[C@@H](C(=O)OC)C2(c3ccccc3-c3ccccc32)N(c2ccc(Cl)cc2)N1C#N,?
CCCCn1c(O)c(C(CC)=NCc2ccco2)c(=O)[nH]c1=O,1.8%
Oc1ccc(CCNCc2cc3c(cc2Br)OCO3)cc1,-22.6%
c1cc2c(c(N3CCNCC3)c1)OCCO2,-11.0%
COC(=O)CC1=C(C(=O)OC)C2(C(=O)N(C)c3ccccc32)C(C#N)=C(N)O1 (configuration not stated),-8.3%
Cn1c[n+](C)cc1C(O)c1ccccc1 (configuration not stated),-10.0%&-14.6%
O=[N+]([O-])c1ccccc1CCl,1.9%
CCN1/C(=C\C=C\C2=[N+](CC)c3ccccc3C2(C)C)C(C)(C)c2ccccc21,-7.1%
O=C(NC(Cc1ccccc1)C(=O)N1CCC2(CC1)OCCO2)C1CCCCC1 (configuration not stated),-9.4%
OCC1OC(n2cnc3cc(Cl)c(Cl)cc32)C(O)C1O (configuration not stated),-24.6%
c1ccc2nc(N3CCNCC3)ccc2c1,-16.2%&-29.4%&-18.3%&-10.7%
O=C1NC(=O)C(CCc2ccncc2)(C2CCCCC2)C(=O)N1,-3.4%
CCOC(=O)C1=C(N)Oc2cc(C)oc(=O)c2C12C(=O)N1c3c(cccc32)C(C)CC1(C)C (configuration not stated),-8.2%
O=[N+]([O-])c1ccccc1,-10.4%
CCN1CCN(S(=O)(=O)c2ccc(Cl)nc2)CC1,-2.3%
# (more compounds)
SMILES,HPGD block
O=C1CC(N2CC=C(c3ccccc3)CC2)C(=O)N1c1ccc(F)cc1 (configuration not stated),-10.6%
CNC(C)C1CC[C@H](N)[C@@H](OC2C(N)C[C@H](N)[C@@H](OC3OC[C@](C)(O)C(NC)[C@H]3O)C2O)O1 (some centres not stated),-14.6%
C[C@@]12CCC(=O)C=C1C=C[C@H]1[C@H]3CC[C@](O)(CCC(=O)O)[C@]3(C)CC[C@@H]12,-2.8%
COc1ccc(OC)c([C@@H](O)[C@H](C)NC(C)(C)C)c1,-9.9%
C[C@@H]1O[C@@H](O[C@H]2C[C@@H](O)[C@]3(CO)[C@H]4[C@H](O)C[C@]5(C)[C@@H](C6=CC(=O)OC6)CC[C@]5(O)[C@@H]4CC[C@]3(O)C2)[C@H](O)[C@H](O)[C@H]1O,-10.0%
O=P(NS(=O)(=O)c1ccc(Br)cc1)(Oc1ccccc1)Oc1ccccc1,-4.3%
COC(=O)C(C)Oc1cc(C)cc2oc(=O)c3c(c12)CCCC3 (configuration not stated),?
O=C(NCc1cccnc1)NC1CCCCC1,-19.5%
C1CC[C@H]([C@@]23C[C@H](C[C@H]4CCCN[C@H]42)[C@@H]2CCCCN2C3)NC1,-4.4%
CNC(=O)Oc1ccc2c(c1)C(=O)c1ccccc1CO2,-23.2%
N#CCCn1cc(C(=O)Nc2ccc([N+](=O)[O-])cc2)c(-c2ccc3c(c2)OCCO3)n1,-20.3%
CC1CCC(NC(=O)c2cc3c(=O)n(C)c4ccccc4c3n2C)CC1 (configuration not stated),?
Oc1ccccc1Cl,-10.8%
CCCCC1C(=O)NC(=S)NC1=O,12.6µM*
CNC(C(=O)c1ccccc1)C(OC(C)C)c1ccc(Cl)cc1 (configuration not stated),-29.8%
Cc1[nH]c(=O)[nH]c(=O)c1/C=C/C(=O)OCC(C)C,?
CC12CN3CN(C1)CC(c1ccccc1)(C3)C2=O,-7.0%
C[C@@H]1C(=O)O[C@@H]2[C@H](O)C34[C@@H]5OC(=O)C3(O[C@H]3OC(=O)[C@H](O)C34[C@H](C(C)(C)C)[C@H]5O)[C@@]12O (some centres not stated),-4.3%
O=c1[nH]c2ccccc2o1,-16.4%
COP(=O)(CC(=O)O)c1ccccc1 (configuration not stated),-6.0%
CCC(=O)Nc1ccc(N2CCN(CC)CC2)c(Cl)c1,-2.7%
C[C@@H](Cc1ccc(Cl)cc1Cl)NO,-3.4%
O=C1CCC[C@H]2[C@@H]3CCCN4CCC[C@H](CN12)[C@H]34,-11.1%
CCN1C(=O)C(=C/C=C/c2ccco2)C(=O)N(CC)C1=S,11.2µM*
N#CSCSC#N,6.31µM*
# The results go on:
SMILES,HPGD block
Clc1ccc(C(c2ccc(Cl)cc2)n2cc[n+](CC(OCc3ccc(Cl)cc3Cl)c3ccc(Cl)cc3Cl)c2)cc1 (configuration not stated),-6.3%
CCN(CC)c1ccc(NC(=O)c2cccc(C)c2)cc1S(=O)(=O)Nc1ccccc1OC,12.6µM*
Cc1ccccc1N1C(=O)CC(=O)NC1=O,-2.3%
CCOC(=O)C1=C(C)OC(N)=C(C(=O)OCC)C12C(=O)Nc1ccc(Br)cc12 (configuration not stated),-3.9%
Cc1cc(N2CCCCC2)ccc1C=C1C(=O)N(C)C(=S)N(C)C1=O,14.1µM*
CCOCCCn1c(N)c(C(=O)Nc2sc3c(c2C(=O)OC)CCCC3)c2nc3ccccc3nc21,?
NCC#Cc1ccccc1,-7.1%
CCCNC(=O)c1c(N)n(Cc2ccc3c(c2)OCO3)c2nc3ccccc3nc12,?
Cc1nonc1OCCNc1ccc([N+](=O)[O-])c2cccnc12,-18.9%
CC(C)(C)c1ccc(O)c(CN2CCN(c3ccccc3)CC2)c1,1.6%
N#CCN1CCN(c2ccc(C(F)(F)F)cc2)CC1,-2.6%
O=C1NC(c2cccnc2)Nc2sc3c(c21)CCCC3 (configuration not stated),-26.1%
O=c1[nH]c(=O)n(CCC2=CCCCC2)c(O)c1C=NCCN1CCNCC1,-4.8%
Cc1ccc(-n2c(O)c(C=NCCN(C)C)c(=O)[nH]c2=O)cc1,-15.4%
O=C(Nc1ccc(Cl)cc1C(=O)c1ccccc1)c1ccco1,-9.6%
Cn1ccnc1P(=S)(c1nccn1C)c1nccn1C,-1.3%
CCCCn1c(O)c(C(C)=NC(Cc2c[nH]c3ccccc23)C(=O)OC)c(=O)[nH]c1=O (configuration not stated),-2.0%
Clc1cc(Cl)c(-c2cc(Cl)c(Cl)cc2Cl)cc1Cl,-14.6%
CCCCOc1ccc(CN2CCN(CCO)CC2)cc1,4.8%
COc1ccc(CN2CCNCC2)c(OC)c1OC,-1.9%
O=C(Nc1cccc(F)c1)N1CC[C@@]2(CCCN(C(=O)Oc3ccccc3)C2)C1,-6.8%
CC(=O)OC1CC(OC(C)=O)[C@]2(C)C(CC(OC(C)=O)[C@]3(C)C2CC[C@@]2(C)C(c4ccoc4)C[C@H]4O[C@]432)C1(C)C (some centres not stated),-0.8%
C#CCO,-1.9%
CC(=NCC1CCCO1)c1c(O)n(C)c(=O)n(C)c1=O (configuration not stated),-3.5%
O=C1NC(=O)N(CCC2=CCCCC2)C(=O)/C1=C\c1cccs1,0.316µM*
# Other results follow:
SMILES,HPGD block
CC12CN3CC(C)(CN(C1)C31CCSCC1)C2=O,-18.2%
CN1CCN(c2nc3ccccn3c(=O)c2C=C2C(=O)N(C)C(=O)N(C)C2=O)CC1,-2.9%
ClCBr,-8.1%
O=C(C1CCC(=O)N1Cc1ccc(F)cc1)N1CCC2(CC1)OCCO2 (configuration not stated),-4.5%
CCCC(C)C1(CC)C(=O)NC(=Nc2ccccc2OC)NC1=O (configuration not stated),0.1%
O=C(O)[C@@H]1[C@H](C(=O)O)[C@]2(Cl)C(Cl)=C(Cl)[C@@]1(Cl)C2(Cl)Cl,-20.8%
COC(=O)CSC1=NP(=S)(SCC(=O)OC)N2CCCC2=C1C#N (configuration not stated),-2.3%
Cn1c(=O)cc(OCC(=O)N2CCN(C3CCCCC3)CC2)c2ccccc21,-3.3%
CCCOP(=O)(OCCC)c1nc(-c2ccccc2)oc1NCc1ccccc1,?
CCCCn1c(=O)c(C(=O)Nc2ccsc2C(=O)OC)c(O)c2ccccc21,?
Cc1ccc2cccc(OC(=O)N3CCCC3)c2n1,-13.9%
CCCN1CCC[C@@H]2Cc3[nH]ncc3C[C@H]21,-2.0%&0.5%
CCC(C)N1C(=O)NC(=O)C2(Cc3cc(C)ccc3N(C)C2)C1=O (configuration not stated),-13.1%
CC(=NCCC1=CCCCC1)c1c(O)[nH]c(=O)[nH]c1=O,-5.2%
COc1cccc(/C=C2\N=C(c3cncc(Br)c3)OC2=O)c1,-13.4%
CC1CC[C@@]2(OC1)OC1C(O)C3C4CC[C@H]5CC(O[C@@H]6O[C@@H](CO)[C@H](OC7OC(CO)C(O)C(OC8OCC(O)C(O)[C@H]8O)[C@@H]7O[C@@H]7OC(CO)[C@H](O)[C@@H](O[C@@H]8OC(CO)C(O)C(O)C8O)C7O)C(O)C6O)C(O)C[C@]5(C)C4CC[C@]3(C)C1C2C (some centres not stated),-3.9%
CC(=O)Nc1ccccc1C(=O)OCC(=O)c1cccc2ccccc12,-10.3%
CC(Cc1ccccc1)NC(=O)NC(C)Cc1ccccc1 (configuration not stated),-15.1%
CNC(=O)[C@@H]1C[C@H]1[C@@H](NP(=O)(c1ccccc1)c1ccccc1)c1ccccc1,-2.1%
CCOc1ccccc1NC(=O)N1CCC2(CC1)OCCO2,-26.8%
CC[C@@H]1CN2CCc3cc(OC)c(OC)cc3[C@H]2C[C@@H]1C[C@@H]1NCCc2cc(O)c(OC)cc21,-7.6%
c1ccc([Se]c2c(-c3ccccc3)[se]c3ccccc23)cc1,-4.1%
O=C(O)[C@@H](O)[C@@H](O)C1[O][Sb][O][C@@H]1CO (some centres not stated),-11.7%

# These rows are one share of the data (hit frequency here may not be typical).
